From PubChem BioAssay
2A StopGo: FMDV 2A StopGo reporter, luciferase signal. human cells with a luciferase reporter of 2A StopGo recoding; control for the full effect not named in the record. Potency, µM (doses to about 57.9 µM), inactives show at the highest dose signal change, negative = less light. hit rate 1.2% among 410,000; active = well fitted falling curve with a large enough effect; inconclusive = small, poorly fitted or top-dose-only effect; inactive = no such curve, though single readings can be large or run the other way; tested in HEK293T cells; also: % is scaled to controls: 0 for no effect and ±100 for the full control effect; nearly all actives have a fitted effect of over 45% in size; luciferase light after 4 h
Marburg entry inh: inhibitors of Marburg virus binding or cell entry; Potency, µM (titrated, usually from 37.8 µM), inactives show top-dose activity change, negative = inhibition, actives largely listed as inhibitors; hit rate 1.8% among 300,000; Marburg virus pseudotyped entry inhibition, cell reporter; control for the full effect not named in the record; about a third of the inactives were read at about 46 µM; active = well fitted inhibition curve with a large enough effect; inconclusive = small, poorly fitted or top-dose-only effect, or effect the other way; inactive = flat fitted curve, though single readings scatter; tested in HEK293 cells; about a fifth of its hits are not listed in these tables; also: % is scaled to controls: 0 for no effect and ±100 for the full control effect; luciferase read-out
LASV entry inh: blocks Lassa virus binding to or entry into cells | Lassa virus pseudotype entry inhibition, cell reporter; control for the full effect not named in the record | Potency, µM (doses to about 37.9 µM), inactives show top-dose activity change, negative = inhibition, most hits filed as inhibitors | hit rate 1.2% among 300,000 | AID 540256; active means well fitted inhibition curve with a large enough effect; inconclusive means small, poorly fitted or top-dose-only effect, or effect the other way; inactive means flat fitted curve, though single readings scatter; tested in HEK293 cells; also: % is scaled to controls: 0 for no effect and ±100 for the full control effect; nearly all actives have a fitted effect of over 50% in size; luciferase read-out
NS1 inh: influenza NS1 inhibition | S. cerevisiae slowed by influenza A NS1, growth recovery by OD600 | Potency, µM (highest dose often 46.1 µM), inactives show at the top dose activity, positive = more growth | hit rate 0.4% among 270,000; also: actives are rising curves; nearly all actives have a fitted effect of over 50% in size
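Read-out: OD600 growth recovery of NS1-expressing budding yeast. Cells grown overnight at 30C in -URA glucose medium, washed, resuspended and diluted 1:100 in 2% galactose assay medium, pH 6.0. Same strain lacking NS1 served as positive control.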
Cruzain noTriton: inhibitors of Trypanosoma cruzi cruzain without detergent; P25779; purified cruzain, Z-FR-AMC fluorescence, no detergent; Potency, µM, for the others: max response, negative = inhibition, usual class: inhibitors; hit rate 2.3% among 200,000; AID 1476; active = well fitted curve in the direction sought with a large enough effect; inconclusive = small, poorly fitted or top-dose-only effect, or another doubt; inactive = no such curve, though single readings can be large; an effect the other way counts as inactive or inconclusive;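 also: plate controls were enzyme without inhibitor for no effect and buffer without enzyme for full effect; nearly all actives have a fitted effect of over 40% in size; top concentration of the series not given in the record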
Target sequence (P25779 123-467 limits assumed): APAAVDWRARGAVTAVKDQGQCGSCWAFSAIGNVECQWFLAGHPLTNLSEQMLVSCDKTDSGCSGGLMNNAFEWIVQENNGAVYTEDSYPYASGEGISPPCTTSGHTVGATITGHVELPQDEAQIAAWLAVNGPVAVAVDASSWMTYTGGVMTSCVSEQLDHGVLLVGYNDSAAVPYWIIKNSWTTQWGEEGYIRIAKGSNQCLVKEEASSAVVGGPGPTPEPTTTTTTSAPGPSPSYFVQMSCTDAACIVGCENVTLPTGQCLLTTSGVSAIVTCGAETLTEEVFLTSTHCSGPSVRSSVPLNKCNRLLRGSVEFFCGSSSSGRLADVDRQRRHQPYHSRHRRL
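Detergent-free condition (0.00005% Triton X-100) in acetate buffer pH 5.5 with DTT. 1.5 nM enzyme and compound were pre-mixed 15 min, then 2 uM Z-FR-AMC substrate added; reaction progress from fluorescence change between first and third reads (60 s).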
RE007 growth inh: less growth of the S. pombe RE007 Vpr strain; S. pombe RE007 Vpr strain, BacTiter-Glo ATP luminescence, 24 h; control for the full effect not named in the record; Potency, µM (series often up to 92.2 µM), inactives show at the highest dose activity change, negative = less growth; hit rate 0.21% among 360,000; active = well fitted falling curve with a large enough effect; inconclusive = small, poorly fitted or top-dose-only effect; inactive = no such curve, though single readings can be large or run the other way;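 also: % is scaled to controls: 0 for no effect and ±100 for the full control effect; nearly all actives have a fitted effect of over 50% in size; the assay follows cell death caused by Vpr and the record does not say whether a fall means rescue or toxicity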
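Fission yeast strain RE007, carrying one chromosomally integrated HIV-1 vpr copy, was seeded at OD 0.01 in PMG+AL medium with 23 nL pinned compound. After 24 h at 30 °C and 99% humidity, viability was read by BacTiter-Glo luminescence.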
SARS PLpro yeast: inhibitors of SARS-CoV papain-like protease in yeast; AID 485353; Potency, µM (highest dose often 32.9 µM), for the others: at the top dose activity, positive = growth rescue; S. cerevisiae expressing SARS-CoV PLpro, growth rescue; control for the full effect not named in the record; hit rate 0.19% among 330,000; also: 0% is about no effect; nearly all actives have a fitted effect of over 55% in size; growth read by luminescence after 48 h
Cruzain Triton: blocks cruzain activity in presence of Triton detergent. P25779. purified cruzain, Z-FR-AMC fluorescence, 0.01% Triton. Potency, µM, inactives show max response, negative = inhibition, actives largely listed as inhibitors. hit rate 0.43% among 200,000; active = well fitted curve in the direction sought with a large enough effect; inconclusive = small, poorly fitted or top-dose-only effect, or another doubt; inactive = no such curve, though single readings can be large; an effect the other way counts as inactive or inconclusive;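 also: plate controls were neutral wells for no effect and buffer without enzyme for full effect; nearly all actives have a fitted effect of over 40% in size; top concentration of the series not given in the record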
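Purified cruzain (1.5 nM final) was preincubated with compounds for 15 min at room temperature in 100 mM sodium acetate pH 5.5, 5 mM DTT, 0.01% Triton X-100. Reaction started with 2 uM Z-FR-AMC; AMC fluorescence change over 60 s gave activity.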
* marks the source's active call; other numbers are inactive results; ? = inconclusive; · = no result given; & = joins results of further samples; [ ] = remark or other dose. Unless noted, calls follow the shape of the dose curve; as a rule, active means well fitted rising curve with a large enough effect; inconclusive means small, poorly fitted or top-dose-only effect; inactive means no such curve, though single readings can be large or run the other way. Potency is read from the fitted curve at half-maximal effect.

smiles,2A StopGo,Marburg entry inh,LASV entry inh,NS1 inh,Cruzain noTriton,RE007 growth inh,SARS PLpro yeast,Cruzain Triton
O=C(CN1C(=O)c2ccc([N+](=O)[O-])cc2C1=O)Nc1nnc(C2CC2)s1,-15%,13%,-15%[46.1 µM],·,·,14%,1%,·
CCOC(=O)C(=NCCOC)NNc1cc(Cl)ccc1Cl,-11%,0%,6%,?,-17%,44%,-19%,-3.4%
COC(=O)[C@H](CCSC)NC(=O)Nc1ccc(C(C)C)cc1,17%,4%,-4%,-37%,7%,4%,-1%,-2.1%
O=C(Nc1ccc(Cl)c(Cl)c1)c1ccc(Cn2c(=O)[nH]c3ccsc3c2=O)cc1,-26%,1%,?,-5%,-22%,14%,-1%,0.3%
CC(C)CCNC(=O)c1nnc(Cc2ccc(Cl)cc2)o1,5%,·,·,-1%,7%,2%,4%,3.4%
Cc1cc(C=O)c(C)n1C1CCCCC1,-3%,?,-12%,1%,-2%,5%,4%,1.2%
CC(=O)Nc1ccc(NC(=O)CSc2nnc(NC(=O)C3CC3)s2)cc1,-9%,7%,?,13%,·,4%,-1%,·
CNC(=O)c1cc(S(=O)(=O)NCc2ccncc2)ccc1OC,-14%,·,·,12%,·,-12%,1%,·
COc1ccccc1N1CCN(C(=O)c2nn(-c3ccccc3OC)c(=O)c3ccccc23)CC1,?,-24%&-24%,4%,-10%,?,-1%,0%,-1.8%
COc1cc2cc(C(=O)N3CCN(Cc4ccc5c(c4)OCO5)CC3)[nH]c2cc1OC,-19%,·,·,-6%,·,22%,3%,·

Single records (already shown). Order of screens: 2A StopGo	Marburg entry inh	LASV entry inh	NS1 inh	Cruzain noTriton	RE007 growth inh	SARS PLpro yeast	Cruzain Triton
CC(=O)Nc1ccc(NC(=O)CSc2nnc(NC(=O)C3CC3)s2)cc1 across the screens: -9%	7%	?	13%	·	4%	-1%	·
CCOC(=O)C(=NCCOC)NNc1cc(Cl)ccc1Cl across the screens: -11%	0%	6%	?	-17%	44%	-19%	-3.4%
COC(=O)[C@H](CCSC)NC(=O)Nc1ccc(C(C)C)cc1 across the screens: 17%	4%	-4%	-37%	7%	4%	-1%	-2.1%

The list goes on.
smiles,2A StopGo,Marburg entry inh,LASV entry inh,NS1 inh,Cruzain noTriton,RE007 growth inh,SARS PLpro yeast,Cruzain Triton
COc1ccc(CCN(C)C(=O)c2ccc(OCC(=O)N3CCOCC3)c(OC)c2)cc1OC,-11%,-16%,-10%,8%,·,7%,2%,·
CN1C(=O)CC(N2CCC(c3nc4ccccc4s3)CC2)C1=O (stereo not given),11%,16%,2%,1%,-6%,?,-6%,0.6%
CCn1c(SCc2nc3ccccc3s2)nnc1-c1cccs1,46%[activator],7%,?,-12%,-18%,4%,?,-0.3%
Cn1c(=O)oc2cc(S(=O)(=O)N3CCOCC3)ccc21,-11%,-1%,16%,5%,0%,8%,·,-5.7%
Cc1c(N=C2NN=C(c3c[nH]c4ccccc34)CS2)c(=O)n(-c2ccccc2)n1C,3%,·,·,8%,·,-8%,0%,·
C=CCn1c(Sc2nnc(C)s2)nc2c1c(=O)[nH]c(=O)n2C,14%,11%,-2%,6%,14%,0%,-1%,6.5%
O=C(O)C1CC(c2ccccc2F)=NO1 (stereo not given),13%,?,?,-3%,0%,19%,-2%,0.0%
Cc1cccc(NC(=O)CSc2ncc(-c3ccccc3)[nH]2)c1C,36%[activator],?,-1%[46.1 µM],·,-3%,·,·,-4.2%
COc1ccccc1-c1nnc2n1N=C(C(C)(C)C)CS2,-17%,-19%,-1%,3%,6%,-12%,6%,-4.3%
COc1ccc(CNC(=O)C2(c3ccc(Cl)cc3)CC2)cc1,-8%,?,?,-7%,8%,9%,-3%,-5.5%
Cc1ccc(NC(=O)CSc2nnc(/N=C/N(C)C)s2)cc1,-12%,3%,3%,-2%,·,2%,0%,·
c1ccc2c(c1)CC(CN1CCNCC1)O2 (stereo not given),-13%,-21%[46.1 µM],9%[46.1 µM],16%,·,-15%,1%,·
Cc1ccc(-c2nnc3ccccc3c2C(=O)Nc2ccc(F)cc2)cc1,66%[activator],·,?,·,-10%,·,·,-0.7%
COc1ccc(S(=O)(=O)N(C)c2nc3ccccc3n3c(CC(C)C)nnc23)cc1,7%,?,8%[46.1 µM],0%,·,12%,3%,·
O=C(Nc1ccc2c(c1)CCC2)c1ccc(Br)o1,26%,?,?,-34%,7%,?,-15%,-5.8%
COc1cc(OC)c2c(-c3cccc(-c4cccc(C)c4)c3)cc(=O)oc2c1,?,·,·,·,10µM*,2%,-10%,0.4%
Cc1n[nH]c(=O)c2c(NC(=O)CSc3nnc(C4CC4)n3C)oc(C)c12,-22%,11%,-3%,·,·,4%,-3%,·
CC1Cc2cc(S(=O)(=O)N3CCCC(C(=O)N4CCCCC4)C3)ccc2N1C(=O)C1CC1 (stereo not given),-20%,·,·,-24%,·,4%,-3%,·
COc1ccccc1N(CC(=O)NCc1ccccn1)S(C)(=O)=O,·,-1%,3%,-5%,-9%,4%,-4%,10%
COc1ccc(NC(=O)c2cccc(Oc3ccc([N+](=O)[O-])cc3Cl)c2)cc1,-6%,?,?,?,?,-11%,-8%,-7.4%
O=C(NNC(=O)c1cccc(Cl)c1)NNC(=O)c1cccc(Cl)c1,-5%,14%,1%,·,·,7%,2%,·
CCCOc1ccc2oc(=O)c3c(c2c1)CCCN3C(=O)CN(C)Cc1ccccc1,0%,?,?,-18%,-14%,7%,-4%,-6.2%
Cc1nnc(SCC(=O)NC(C)c2ccccc2)[nH]c1=O (stereo not given),-15%,-14%,2%,2%,5%,-5%,0%,0.3%
Cc1ccc(NC(=O)C2CCN(S(=O)(=O)c3cccs3)CC2)c(O)c1,-1%,-26%,?,-5%,·,2%,0%,·
CN1CCN(NC(=O)c2ccc(COc3ccccc3Br)o2)CC1,-7%,?,-27%[46.1 µM],·,·,-1%,0%,·
Cc1cc(-c2ccc(S(=O)(=O)Nc3ccc(Br)c(C)c3)s2)on1,13%,·,-9%[46.1 µM],·,-25%,·,·,-8.9%
CCCc1nn(C)c(C(=O)Nc2ccc3ccccc3c2)c1Cl,32%[activator],?,11%,-21%,1%,?,-10%,-3.9%
COc1ccc(CCNC(=O)Cc2nn(C)c(=O)c3ccccc23)cc1OC,?,?,-11%,8%,-5%,-6%,-1%,-1.1%
Cc1ccc2nc(NC(=O)c3ccc(NS(=O)(=O)c4cccs4)cc3)sc2c1,27%,?,6%,-13%,?,-2%,-20%,-6.0%
CCCc1cc(=O)[nH]c(SCc2cccc(C)c2)n1,-18%,-3%,17%,-72%,-3%,4%,-8%,-5.8%

Continued, starting with the last five of the part before.
smiles,2A StopGo,Marburg entry inh,LASV entry inh,NS1 inh,Cruzain noTriton,RE007 growth inh,SARS PLpro yeast,Cruzain Triton
Cc1cc(-c2ccc(S(=O)(=O)Nc3ccc(Br)c(C)c3)s2)on1,13%,·,-9%[46.1 µM],·,-25%,·,·,-8.9%
CCCc1nn(C)c(C(=O)Nc2ccc3ccccc3c2)c1Cl,32%[activator],?,11%,-21%,1%,?,-10%,-3.9%
COc1ccc(CCNC(=O)Cc2nn(C)c(=O)c3ccccc23)cc1OC,?,?,-11%,8%,-5%,-6%,-1%,-1.1%
Cc1ccc2nc(NC(=O)c3ccc(NS(=O)(=O)c4cccs4)cc3)sc2c1,27%,?,6%,-13%,?,-2%,-20%,-6.0%
CCCc1cc(=O)[nH]c(SCc2cccc(C)c2)n1,-18%,-3%,17%,-72%,-3%,4%,-8%,-5.8%
COc1ccc(COCCN2CCN(S(=O)(=O)c3ccccc3)CCC2=O)cc1,-14%,·,·,2%,·,-8%,-1%,·
CC1=C(C#N)C(=O)NC(=O)/C1=C\c1ccc(-c2cc(C)c(C)cc2[N+](=O)[O-])o1,?,28%,27%,·,·,?,-2%,·
COc1ccc(-c2[nH]ncc2-c2ccc3c(c2)OCCO3)c(O)c1,?,-14%[46.1 µM],?,-167%,-10%,16%,·,-4.9%
COc1cc(CNc2ccc(N3CCCCC3)cc2)ccc1OCC(=O)NC(C)(C)C,?,?,?,-5%,·,?,-8%,·
COc1ccccc1CC(=O)NC1CCCCCC1,-7%,·,·,18%,·,-11%,6%,·
CCOC(=O)N1CCN(C(=O)COC(=O)c2cc(Cl)cc(Cl)c2)CC1,-7%,-11%,3%,·,·,0%,-22%,·
COc1ccc(N(CC(O)CN2CCOCC2)S(=O)(=O)c2ccccc2)cc1 (stereo not given),-6%,16%,2%,6%,·,10%,0%,·
O=C(Nc1cscc1S(=O)(=O)c1ccccc1)c1ccccc1Cl,6%,-9%&-9%[46.1 µM],3%,0%,·,38%,-10%,·
Cc1cc(C)c(S(=O)(=O)Nc2ccccc2C(=O)N2CCCC2)c(C)c1,-8%,?,22%,0%,·,3%,-6%,·
CCOC(=O)C1=C(O)/C(=C\c2sccc2C)N=C1C,-5%,-2%,13%,-11%,-7%,-8%,19%,-8.7%
O=c1[nH]c2cc(C(F)(F)F)ccc2n1-c1cc(C(F)(F)F)ccc1O,-16%&-19%,-8%&-8%&-8%&2%&-8%&-8%&-8%,-10%,-38%,5%,22%[18.4 µM],3%,-14%
